HIV Env fusion: HIV envelope-mediated fusion inhibition | inhibition, % at 12.3 µM | AID 651610 | HeLa-JRFL Env/CEM21 cell fusion, luciferase | hit rate 1.1% among 360,000;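 active = mean replicate inhibition score of at least 50 and every replicate individually at or above 50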;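 note: 0% = plate neutral controls and 100% = maraviroc near 300 nM; one replicate is shown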
MT1-MMP act inh: blocks activation of human MT1-MMP. P50281. HT1080 RFP-PRO-GFP cells, GFP/RFP ratio fluorescence, overnight; percent of plate control window, DMSO zero. GFP/RFP ratio change, % at 20 µM. hit rate 0.061% among 360,000;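 active = GFP/RFP ratio change of at least 30% with cell ATP level not reduced by more than half and red fluorescence within 50% of control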; note: strong numbers were not always called active
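Test system: HT1080 RFP-PRO-GFP cells; Benchmarks: DMSO and RFP-L50D-GFP cell wells; Timing: cells overnight before dosing, compound overnight, 37 °C, 5% CO2; Compound: one 20 µM compound dose with 1% DMSO; Read-out: GFP/RFP fluorescence ratio.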
PABP polyA inh: PABP-poly(A) binding inhibition. P11940. PABP-poly(A) RNA binding, fluorescence polarization. inhibition, % at 35 µM. hit rate 1% among 290,000;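 active = 50% or more with normal probe brightness, or confirmed in later tests; about a fifth of its hits are not listed in these tables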;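 note: calls also rest on retests at 20 µM and on dose response follow-up; controls were probe without protein and protein plus probe with vehicle; some compounds called inactive have numbers as strong as hits; many hits fall short of the cut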
Target sequence (P11940 whole entry, looked up): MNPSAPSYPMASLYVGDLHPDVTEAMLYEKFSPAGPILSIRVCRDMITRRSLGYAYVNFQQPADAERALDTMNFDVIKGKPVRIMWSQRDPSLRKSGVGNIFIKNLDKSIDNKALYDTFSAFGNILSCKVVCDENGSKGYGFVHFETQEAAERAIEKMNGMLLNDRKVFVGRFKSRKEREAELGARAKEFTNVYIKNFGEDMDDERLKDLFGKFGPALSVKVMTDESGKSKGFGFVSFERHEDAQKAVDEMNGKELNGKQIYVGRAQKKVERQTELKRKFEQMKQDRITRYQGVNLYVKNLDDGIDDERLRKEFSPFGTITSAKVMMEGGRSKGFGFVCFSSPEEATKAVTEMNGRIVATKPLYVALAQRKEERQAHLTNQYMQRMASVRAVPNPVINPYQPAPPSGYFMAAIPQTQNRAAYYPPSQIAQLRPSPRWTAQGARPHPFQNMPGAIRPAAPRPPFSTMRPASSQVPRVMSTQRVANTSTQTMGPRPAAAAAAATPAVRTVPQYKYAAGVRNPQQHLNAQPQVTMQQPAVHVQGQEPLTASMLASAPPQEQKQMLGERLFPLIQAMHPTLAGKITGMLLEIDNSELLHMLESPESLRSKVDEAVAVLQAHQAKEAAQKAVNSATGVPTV
eIF4H inh: inhibitors of RNA binding by human eIF4H; Q15056; eIF4H fluorescence polarization binding assay; inhibition, % at 35 µM; hit rate 0.94% among 290,000; AID 2012;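 active = 50% or more with normal probe brightness, or confirmed in later tests; about a fifth of its hits are not listed in these tables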;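 note: calls also rest on retests at 20 µM and on dose response follow-up; 0% = protein and probe with vehicle and 100% = probe without protein; strong numbers were not always called active; many hits fall short of the cut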
Rce1 inh: yeast Ras-converting enzyme inhibition; yeast membranes, quenched prenylated peptide cleavage fluorescence; calls only; hit rate 0.27% among 290,000; Q03530; AID 2563;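 active = fall in fluorescence gain of 50% or more versus controls, with final raw signal at or below 3038400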;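 note: plate controls were neutral control wells for no effect and wells lacking membranes for full effect; tested at 10 µM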
Target sequence (Q03530 whole entry, looked up): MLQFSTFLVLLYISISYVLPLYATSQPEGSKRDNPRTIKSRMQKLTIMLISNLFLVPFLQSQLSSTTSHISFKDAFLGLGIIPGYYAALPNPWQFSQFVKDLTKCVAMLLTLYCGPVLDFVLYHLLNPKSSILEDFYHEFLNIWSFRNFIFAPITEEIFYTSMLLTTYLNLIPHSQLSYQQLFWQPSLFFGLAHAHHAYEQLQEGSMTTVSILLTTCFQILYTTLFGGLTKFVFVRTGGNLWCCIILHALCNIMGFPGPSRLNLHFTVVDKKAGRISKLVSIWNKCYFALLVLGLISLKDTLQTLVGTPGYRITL
CSC inhib: blocks cancer stem cells; cancer stem cell-like cells viability, luminescence; inhibition, % at 7.5 µM; hit rate 1.1% among 300,000;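 active = mean at 75% or more and at least half the replicates too; tested in HMLE shEcad cells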;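 note: 0% = median of negative and 100% = median of positive control wells; the first replicate is given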
UUG fidelity: modulators of start codon recognition fidelity in yeast; S. cerevisiae UUG-firefly luciferase reporter, luminescence/redox ratio; hit rate 0.13% among 350,000; AID 602363; activity score, % at 18.7 µM;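 active = replicate mean at a twofold rise or more, about +100% in these data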;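 note: firefly luciferase made from a UUG start codon reports start codon fidelity; reporter light over untreated wells divided by growth signal over untreated wells; some hits fall short of that in this replicate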
eIF4H inh retest: also measured in eIF4H inh; calls as there; inhibition, %; compound at 20 µM; confirmation average;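 mean of two retest wells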
PABP polyA inh retest: further read-out of PABP polyA inh, marked with its call; inhibition, %; compound at 20 µM; confirmation repeats;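 mean of two retest wells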
MT1-MMP act inh RFP: also measured in MT1-MMP act inh; calls as there; RFP signal change, %; measured here: RFP expression control read;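 0 = vehicle wells; hits needed this value within 50% of zero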
An asterisk follows results filed as active; i = inactive; nt = not tested or not shown. Outcome played no part in choosing rows (roughly 3% active in at least one column).

SMILES | HIV Env fusion | MT1-MMP act inh | MT1-MMP act inh RFP | PABP polyA inh | eIF4H inh | Rce1 inh | CSC inhib | UUG fidelity | others
CC(C)C(=O)Nc1ccc(Cc2ccc(NC(=O)C(C)C)c(O)c2)cc1O | -90.9 | 3.2 | 5.7 | 2.6 | -8.6 | i | 5.2 | -17.8
O=C(NNC(=S)NC(=O)c1ccc(F)cc1)c1cccnc1 | -2.9 | 6.8 | 4.8 | -7.1 | 4.0 | i | -2.4 | -24.8
COc1ccc(Cl)cc1NC(=O)C(C)OC(=O)C1=NNC(=O)CC1 (configuration not stated) | nt | 2.0 | 0.4 | nt | nt | nt | -18.9 | -2.6
CCC1=C(OC(=O)N(CC)CC)N2C(=O)OC(=NCCc3c[nH]c4ccccc34)[C@]2(Cc2ccccc2)[C@H]2C1=CC[C@H]1C(=O)N(C)C(=O)[C@H]12 | -41.1 | -9.0 | -4.7 | 1.7 | -4.2 | i | -5.9 | -10.1
O=C(O)c1nn(CCOc2cccc(Br)c2)c(=O)c2ccccc12 | 5.6 | 1.7 | -1.6 | -2.8 | -1.3 | i | -0.6 | -9.3
CCC1C(=O)Nc2ccccc2N1C(=O)COc1ccccc1 (configuration not stated) | 9.3 | 0.1 | 2.5 | -3.1 | -3.8 | i | -4.9 | 2.3
CCC1CN(C(=O)N2CCC(C(=O)NCCc3ccc(OC)c(OC)c3)CC2)c2ccccc2O1 (configuration not stated) | -24.1 | 4.1 | -3.2 | 8.1 | -5.6 | i | 2.7 | 4.4
CCC(C)(C)c1nnc(NC(=O)CCC2CCCCC2)s1 | 8.2 | 4.0 | 2.9 | nt | nt | i | -5.7 | -17.3
CCCCCCCC1(C)NC(=O)N(c2ccccc2)N1 (configuration not stated) | nt | 3.3 | 0.4 | -2.2 | -2.5 | i | 21.9 | -10.9
C/C(=N\NC(=S)Nc1ccccc1C)c1cc2ccccc2o1 | 14.5 | 3.4 | -4.9 | 8.6 | 14.9 | i | 27.7 | -31.7
Cn1c(SCc2ccccn2)nc2c1c(=O)[nH]c(=O)n2C | 4.8 | -3.3 | 3.3 | 13.4 | 1.9 | i | -2.9 | -2.8
O=C(c1ccc(N2CCCCC2)c([N+](=O)[O-])c1)N(Cc1ccccc1)c1ccccn1 | -6.8 | 1.1 | -22.3 | -2.0 | 8.9 | i | 48.3 | 15.1
O=C(c1cc2ccccc2[nH]1)N(Cc1cccnc1)CC1CCCN(C2CCCCC2)C1 (configuration not stated) | -8.0 | -3.5 | 2.4 | -7.0 | 2.3 | i | 4.7 | -8.7
CC(C)c1ccc(NC(=O)C2CCCN(S(=O)(=O)c3ccc4c(c3)C(C)(C)C(=O)N4C)C2)cc1 (configuration not stated) | 3.0 | -23.0 | -40.0 | -4.2 | -9.4 | i | 7.3 | -2.6
Cc1ccc(S(=O)(=O)c2cc3c(=O)n4cccc(C)c4nc3n(CCc3ccccc3)c2=N)cc1C | 7.1 | 0.6 | 3.7 | nt | nt | nt | nt | -9.6
CC(=O)Oc1cccc(/C=c2\sc3nc(-c4ccco4)nn3c2=O)c1 | nt | 0.5 | 1.4 | 6.4 | 18.5 | nt | nt | nt
C=CCn1c(COc2ccc(F)cc2)nnc1SCC(=O)NC1CC1 | -1.8 | 3.6 | 4.1 | nt | nt | i | -4.0 | nt
Cc1c(C(=O)Nc2ccc(N3CCOCC3)cc2)cccc1[N+](=O)[O-] | -16.2 | 2.6 | 2.5 | -5.9 | -4.8 | i | -14.6 | nt
Cc1ccc(CN2CC(N3CCCCC3)CS2(=O)=O)cc1 (configuration not stated) | 1.4 | 2.3 | 6.7 | nt | nt | nt | nt | -2.8
NNC(=O)Cn1nc(Cc2ccccc2)n(N)c1=O | nt | -1.3 | 3.9 | nt | nt | nt | 10.4 | -7.7
C/C(=N\NC(=O)c1ccc(OC2CCCC2)cc1)c1ccc(O)cc1 | -196.6 | 3.0 | 4.3 | -5.9 | -7.9 | nt | -3.2 | -16.2
COc1cc(C(=O)NNC(=O)CNC(=O)C2CCCCC2)ccc1OC(C)C | -7.2 | -0.4 | 0.4 | nt | nt | nt | 0.9 | -10.8
COc1ccc(S(=O)(=O)N2CCN(C(C)C(=O)Nc3ccc(C(C)C)cc3)CC2)cc1 (configuration not stated) | nt | -3.9 | -7.8 | nt | nt | nt | -10.6 | -12.5
COc1ccc(NC(=O)C(NC(=O)c2ccc(C)cc2)c2ccccc2)cc1 (configuration not stated) | 1.3 | -0.6 | -2.6 | 7.9 | 13.2 | i | 19.6 | -8.2
CSc1ccc(NC(=O)N2CC(C)OC(C)C2)cc1 (configuration not stated) | nt | 0.6 | -0.2 | -19.8 | -2.1 | i | -4.6 | nt
O=C(NCc1ccccn1)C1CCN(S(=O)(=O)c2ccc(Br)cc2)CC1 | 10.9 | 0.2 | 1.1 | 2.5 | 6.5 | i | 9.0 | -8.0
Cc1ccc(C)c(Cc2c(C)nc(C)[nH]c2=O)c1 | 4.9 | 2.2 | 1.1 | -11.9 | 5.1 | i | -5.8 | -22.7
O=C(NCC1CCCO1)C(Cc1ccccc1)N1C(=O)C2C3C=CC(C4CC34)C2C1=O (configuration not stated) | 8.3 | 0.2 | -0.3 | -5.1 | 0.7 | i | -3.8 | -9.6
Cc1nn(Cc2c(F)c(F)c(F)c(F)c2F)c(C)c1NC(=O)c1cccc(COc2ccc(Cl)cc2)c1 | 62.6* | 2.6 | -9.6 | -2.2 | 3.0 | i | 6.1 | -8.6
COc1ccccc1NS(=O)(=O)c1cccc(C(=O)N/N=C(\C)c2cccnc2)c1 | 3.1 | 0.0 | -1.2 | nt | nt | nt | nt | -13.8
COC(=O)c1cc(-c2ccc(S(=O)(=O)N3CCCC(C)C3)cc2)c(C(F)(F)F)s1 (configuration not stated) | -0.7 | 7.6 | -5.8 | 1.5 | -14.4 | i | 4.0 | nt
O=C(NNC(=S)Nc1ccccc1)C1CC1 | nt | 2.9 | 3.8 | 2.8 | 10.3 | i | -18.6 | -26.9
COc1ccccc1C(c1c(O)nc(SC)[nH]c1=O)c1c(O)nc(SC)[nH]c1=O | 0.6 | -2.2 | 0.6 | nt | nt | i | -7.7 | -20.4
CCC(NC(=O)c1ccccc1NC(=O)c1ccc(OC)cc1)C(=O)N1CCCC1 (configuration not stated) | -28.1 | 0.8 | 6.2 | 6.3 | 1.1 | i | -26.6 | nt
CSc1ncccc1C(=O)OCC(=O)NCCc1ccccc1 | nt | -0.7 | 1.1 | nt | nt | nt | -18.9 | -7.3
O=C(NC(=S)N1CCCCC1)c1cccnc1 | -8.6 | -2.0 | -0.6 | 9.4 | -9.2 | i | -2.7 | -46.6
COc1ccc(C(CCc2ccc(C)o2)NC(=O)Nc2ccc(OC)cc2OC)cc1 (configuration not stated) | -28.0 | -1.8 | -5.1 | -3.2 | -1.2 | i | -9.8 | -12.3
COc1ccc(/C=N/NC(=O)c2ccc(Br)cc2)c(OC)c1 | 7.4 | 4.6 | 5.1 | 8.6 | 2.0 | i | -8.1 | -4.0
O=C1C=C(c2cc(Cl)cc(Cl)c2)C[C@@H](c2ccc3c(c2)OCO3)C1 | -29.9 | 4.7 | 1.8 | nt | nt | nt | 40.5 | -16.0
O=S(=O)(NCc1ccccc1)c1cccs1 | nt | -0.5 | 4.6 | -0.2 | -6.1 | i | nt | -23.0

Arranged by formula weight (rising): 3 of the compounds above.
SMILES | HIV Env fusion | MT1-MMP act inh | MT1-MMP act inh RFP | PABP polyA inh | eIF4H inh | Rce1 inh | CSC inhib | UUG fidelity | others
COc1ccccc1NS(=O)(=O)c1cccc(C(=O)N/N=C(\C)c2cccnc2)c1 | 3.1 | 0.0 | -1.2 | nt | nt | nt | nt | -13.8
COc1ccccc1C(c1c(O)nc(SC)[nH]c1=O)c1c(O)nc(SC)[nH]c1=O | 0.6 | -2.2 | 0.6 | nt | nt | i | -7.7 | -20.4
COc1ccc(S(=O)(=O)N2CCN(C(C)C(=O)Nc3ccc(C(C)C)cc3)CC2)cc1 (configuration not stated) | nt | -3.9 | -7.8 | nt | nt | nt | -10.6 | -12.5

Carrying on:
SMILES | HIV Env fusion | MT1-MMP act inh | MT1-MMP act inh RFP | PABP polyA inh | eIF4H inh | Rce1 inh | CSC inhib | UUG fidelity | others
COc1cccc(N2CCN(C(=O)c3ccc4nc(N5CCCCC5)sc4c3)CC2)c1 | -10.5 | -0.5 | -5.5 | 1.0 | 3.4 | i | 6.5 | -16.3
COC(=O)c1ccc(C(C(=O)NCc2ccccc2)N(Cc2ccco2)C(=O)c2cnccn2)cc1 (configuration not stated) | nt | 4.6 | 1.4 | 1.1 | 1.6 | i | -3.6 | -5.4
Cc1nn(C)cc1/C=C1\SC(=S)NC1=O | -120.5 | 1.2 | 4.4 | 6.1 | 5.1 | i | 2.8 | -21.0
CCOC(=O)c1ccc(NC(=O)c2nn(CC)cc2Br)cc1 | -49.0 | 1.4 | -5.1 | -11.4 | -12.0 | i | 12.4 | -7.2
CC1(C)CC(=O)c2cnc(NC(=O)CCc3ccccc3)nc2C1 | 4.7 | -0.4 | 0.6 | -3.1 | 2.3 | i | nt | -8.8
O=C1CC2(CCN(C(=O)COc3ccccc3F)CC2)Oc2ccccc21 | 4.5 | 4.9 | 2.7 | nt | nt | i | -10.2 | -7.0
CC(=O)Nc1ccc(S(=O)(=O)NCCS(=O)(=O)N2CCN(c3ccccc3F)CC2)cc1 | -12.2 | 3.3 | -10.3 | -1.8 | -0.6 | i | 2.9 | -6.9
COc1cccc(Nc2ccccc2C(=O)O)c1 | -8.5 | -2.9 | -0.8 | -8.8 | 5.4 | i | -2.3 | nt
COCCNc1nc(N2CCCCC2)c2cnn(C)c2n1 | -5.3 | -1.3 | -0.8 | 2.4 | -2.5 | i | -9.1 | -4.1
CN(/N=C/c1cccc(Br)c1)C1=NS(=O)(=O)c2ccccc21 | 0.4 | -1.8 | -5.1 | 12.9 | -5.0 | i | -7.9 | -4.8
N#Cc1c(-c2ccccc2)cc(-c2ccccc2)nc1Br | -6.9 | -5.6 | 2.2 | 10.4 | -0.3 | i | -1.5 | -13.3
CCC(C)(C)C1CCc2[nH]nc(C(=O)NCCNC(=O)OC(C)(C)C)c2C1 (configuration not stated) | 8.5 | 4.1 | -6.3 | nt | nt | nt | nt | -31.7
CCOc1ccc(CC(=NCCO)C2=C(O)CC(C)(C)CC2=O)cc1OCC | 33.2 | -2.4 | 0.8 | -0.5 | -5.4 | i | 0.8 | nt
CCOc1ncccc1C(=O)NCc1ccc(OC)c(OC)c1 | 38.3 | -1.2 | -3.2 | 2.4 | -3.6 | i | 6.9 | nt
COc1ccc(OC(C)C(=O)Nc2ccccc2C(F)(F)F)cc1 (configuration not stated) | nt | 3.7 | 2.1 | -9.3 | 3.3 | i | 9.0 | -20.2
CCCc1nc(SCc2cccnc2)c2c(=O)n(C)c(=O)n(C)c2n1 | -54.1 | -3.4 | -7.0 | -12.1 | -3.2 | i | 1.5 | -13.4
CC1CN(CCOc2ccc(Cl)c(Cl)c2)CC(C)O1 (configuration not stated) | 0.0 | -3.0 | -4.1 | -6.9 | 8.7 | i | 22.6 | -5.3
CC(C)(Oc1ccc(Cl)cc1)C(=O)Nc1ccncc1 | nt | -7.3 | -20.7 | 0.0 | 2.0 | i | -7.4 | -9.9
COc1ccc2nc(NC(=O)CSc3nnnn3C3CCCCC3)sc2c1 | nt | -6.7 | 4.7 | -10.8 | -8.7 | i | 11.5 | 1.6
COC(=O)Cc1c(O)ccn(CCc2ccc(S(N)(=O)=O)cc2)c1=O | -1.3 | 0.1 | 1.7 | -3.7 | 85.3 | i | -11.3 | -18.1 | eIF4H inh retest=-5.0;PABP polyA inh retest=5.2

Screening results: PubChem, several laboratories
